D2 PAM = potentiates the human D2 dopamine receptor allosterically; P14416; 0.23% of 360,000 active; DiscoveRx D2 beta-arrestin cells, luminescence, 90 min; 100% = 57 uM dopamine signal; potentiation, % (concentration not given with the values); active = potentiation of 50% or more; inconclusive = 30% to 50%; inactive = 30% or less;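 further: compound concentration not given in the record; tested on top of an EC20 dose of dopamine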
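PathHunter beta-arrestin assay in DiscoveRx D2 cells. Compounds were added with an EC20 of dopamine (50 nM final) for 90 min at 37 deg C. Luminescence was read 1 h after detection reagent, with 57 uM dopamine as the EC100 control.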
D2 ag = human D2 receptor agonism in beta-arrestin assay. AID 624465. DiscoveRx PathHunter D2 beta-arrestin, luminescence, 90 min; 100% = 57 uM dopamine signal. 0.084% of 360,000 active. activation, % (concentration not given with the values). P14416; in the data active = activation above about 40%; inconclusive = about 15% to 40%; inactive = below about 15%; further: compound concentration not given in the record; the text of the record calls up to 30% inactive
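Agonist mode: compounds alone added to overnight-plated D2 PathHunter cells for 90 min at 37 C, with 57 uM final dopamine (EC100) defining full response. Beta-arrestin recruitment detected by chemiluminescent reagent, read after 1 h at ambient temperature.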
PINK1 expr mod = changes PINK1 expression; PINK1 immunofluorescence, high-content cytometry, 24 h; Potency, µM (highest dose often 76.6 µM), without a hit: at the highest dose activation (PINK1 increase), hits mostly activators; 0.2% of 410,000 active; active = well fitted activation curve with a large enough effect; inconclusive = small, poorly fitted or top-dose-only effect; inactive = flat fitted curve, though single readings scatter; cell line not stated here;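 further: potency means the concentration at half of the fitted maximal effect; % of control where 0% means no effect; nearly all actives have a fitted effect of over 65% in size; a mitochondrial uncoupler was the plate control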
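Cells are seeded, rested 12 hours, then given compound at five concentrations or DMSO for 24 hours. After fixation, blocking and antibody staining, PINK1 amount and mitochondrial localization are scored; CCCP serves as control.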
TRPML1 agonist = activates the human TRPML1 channel. TRPML1-expressing cells, Ca2+ dye fluorescence, FDSS; host cell line not named in the record; reference of the full effect not given here. activation, % (concentration not given with the values). 0.12% of 410,000 active. AID 624414; in the data active = activation above about 50%; inconclusive = about 30% to 50%; inactive = below about 30%; further: 0% is about no effect; the text of the record puts the active cut at 80%
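Agonist activity was taken from a 110 s kinetic Ca2+ dye read on the FDSS after pinning compounds onto TRPML1-DL cells. The cells were seeded at 1,500/well with Tet inducer, incubated about 16 h, then dye-loaded at room temperature.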
TRPML1 inh = inhibitors of human TRPML1 channel; Q9GZU1; TRPML1-inducible cells, Ca2+ dye fluorescence, FDSS; hits give low values; inhibition of EC80 agonist-evoked calcium signal; activity change, negative = inhibition, % (no concentration beside the values); 0.02% of 390,000 active; AID 624415; in the data active means activity change below about -50%; inconclusive means about -30% to -50%; inactive means above about -30%;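 further: stimulus is agonist 54-4 at its EC80 concentration; on the % scale 0 is the no-effect control and ±100 the full control effect; compound concentration not given in the record; the text of the record puts the active cut at -80%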
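Tet-induced TRPML1-DL cells loaded with Ca8 no-wash calcium dye were read kinetically on FDSS. Compound addition was followed by EC80 agonist 54-4 (4 uM final); inhibition was read over 110 s.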
Six1-Eya2 inh = inhibitors of human Six1/Eya2 interaction; Q15475+O00167; AlphaScreen GST-Six1/His-Eya2 binding, biochemical; hits give low values; control for the full effect not named in the record; activity change, % (test concentration not listed); 0.56% of 360,000 active; AID 651725; in the data active = activity change below about -65%; inconclusive = about -30% to -65%; inactive = above about -30%; further: on the % scale 0 is the no-effect control and ±100 the full control effect; compound concentration not given in the record
Target sequence (O00167 whole entry, looked up): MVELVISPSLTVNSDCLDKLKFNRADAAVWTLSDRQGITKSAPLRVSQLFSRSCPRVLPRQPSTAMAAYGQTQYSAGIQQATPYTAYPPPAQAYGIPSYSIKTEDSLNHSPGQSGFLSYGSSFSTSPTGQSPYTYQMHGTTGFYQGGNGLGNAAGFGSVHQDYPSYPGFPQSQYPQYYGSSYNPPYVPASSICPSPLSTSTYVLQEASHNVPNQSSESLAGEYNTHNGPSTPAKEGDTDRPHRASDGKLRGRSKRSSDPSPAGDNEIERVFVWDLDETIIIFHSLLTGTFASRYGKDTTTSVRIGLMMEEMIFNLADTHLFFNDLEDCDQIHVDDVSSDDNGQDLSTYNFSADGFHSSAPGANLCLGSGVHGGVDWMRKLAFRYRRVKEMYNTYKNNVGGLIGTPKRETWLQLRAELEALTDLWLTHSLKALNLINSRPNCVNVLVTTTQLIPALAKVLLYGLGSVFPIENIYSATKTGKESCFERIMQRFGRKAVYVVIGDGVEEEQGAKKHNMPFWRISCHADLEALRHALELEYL
Target sequence (Q15475 whole entry, looked up): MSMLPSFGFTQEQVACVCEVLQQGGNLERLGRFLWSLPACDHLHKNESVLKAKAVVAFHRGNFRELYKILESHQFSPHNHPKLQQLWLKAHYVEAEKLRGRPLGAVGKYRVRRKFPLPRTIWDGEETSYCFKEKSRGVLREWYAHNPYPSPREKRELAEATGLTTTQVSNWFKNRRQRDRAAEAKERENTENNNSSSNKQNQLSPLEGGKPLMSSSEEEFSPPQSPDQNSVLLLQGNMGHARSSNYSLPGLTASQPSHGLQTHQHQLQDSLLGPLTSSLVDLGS
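Compounds are tested against tagged Six1 and Eya2 proteins bridged by glutathione donor and nickel acceptor beads; after a one-hour incubation at 37 °C without light, AlphaScreen emission is recorded.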
Active calls of the source: *; ? = inconclusive; · = not tested or not shown; [ ] = another dose, or the depositor's remark.

The first 2 entries (preview)
Compound | D2 PAM | D2 ag | PINK1 expr mod | TRPML1 agonist | TRPML1 inh | Six1-Eya2 inh
COc1ccc(N2C(=O)C(F)(F)C2c2cccc(F)c2)cc1 (configuration not stated) | -13 | 0.5 | -3.2% | 1.8 | 15 | 20
COc1ccc(OC)c(S(=O)(=O)n2nc(-c3ccccc3)cc2N)c1 | -6 | 0.6 | 2.9% | -0.9 | 1 | -6

The list itself (from the top)
Compound | D2 PAM | D2 ag | PINK1 expr mod | TRPML1 agonist | TRPML1 inh | Six1-Eya2 inh
COc1ccc(N2C(=O)C(F)(F)C2c2cccc(F)c2)cc1 (configuration not stated) | -13 | 0.5 | -3.2% | 1.8 | 15 | 20
COc1ccc(OC)c(S(=O)(=O)n2nc(-c3ccccc3)cc2N)c1 | -6 | 0.6 | 2.9% | -0.9 | 1 | -6
CCOC(=O)c1sc(NC(=O)c2ccc(S(=O)(=O)N3CCOCC3)cc2)nc1-c1ccccc1 | -7 | -5.3 | 5.2% | 1.3 | -13 | 1
CC1=C(C(=O)Nc2ccccc2)C(CC(C)C)n2nc(SCc3ccccc3C)nc2N1 (configuration not stated) | · | · | 0.7% | -1.1 | -13 | ·
CC(C)CNC(=O)COC(=O)c1c2c(nc3ccccc13)/C(=C\c1cccs1)CC2 | -13 | 7.0 | -0.1% | 1.2 | 7 | 42
CCOC(=O)c1c(NC(=O)Cn2c(C)nc3ccccc32)sc2c1CCC2 | -4 | -0.6 | 8.7% | 0.9 | -5 | -7
O=C(C[n+]1cccc(CNC(=O)c2ccc(OC(F)F)cc2)c1)Nc1ccccc1Cl | -28 | -4.3 | -0.1% | 0.6 | 9 | 20
CCOc1ccc(-n2c(=S)sc3c(=O)n(-c4ccccc4)c(SCC(=O)O)nc32)cc1 | -20 | -1.2 | 0.5% | -0.6 | ? | 0
Cc1ccc(N2CN(Cc3cccnc3)CNC2=S)c(C)c1 | -8 | -5.0 | 0.0% | -0.4 | -11 | 6
COc1cccc(OC)c1C(=O)Nc1cccc2c1CCCC2 | 0 | -1.7 | 11% | 2.8 | 11 | -2
O=C(NCCc1ccccc1)c1cc(S(=O)(=O)N2CCCC2)ccc1F | 2 | 4.6 | -1.1% | -0.7 | -2 | 2
CC(C)c1ccc(NC2CCCN(C(=O)CN3C(=O)CSC3=O)C2)cc1 (configuration not stated) | -5 | 0.6 | -1.6% | -0.7 | -7 | -3
CC1=C(C(=O)Nc2ccccc2)C(c2cc(Br)ccc2F)n2ncc(C(=O)Nc3ccccc3)c2N1 (configuration not stated) | · | · | 21% | 1.4 | 6 | ·
O=C(OCC(=O)c1c[nH]c2ccccc12)C1=COCCO1 | -5 | -3.6 | 2.8% | -0.5 | 16 | -1
CCOC(=O)C1=C[C@]2(CC)CCCN3CCc4c(n1c1ccccc41)[C@@H]32 | 2 | 4.6 | 2.3% | -0.4 | 0 | 3
N#Cc1ccccc1OCC(=O)NC(=O)NCc1ccco1 | 0 | -0.1 | 2.2% | · | · | 2
CCOc1ccc(NS(=O)(=O)c2ccc(C(=O)N3CCN(c4ncccn4)CC3)cc2)cc1 | -11 | -4.8 | -0.5% | 0.0 | 1 | -1
COc1ccc(NC(=O)C2CCN(S(=O)(=O)c3c(C)noc3/C=C/c3ccc(C)cc3)CC2)cc1Cl | · | · | 1.0% | 0.2 | -12 | ·
Cn1c(=O)n(C)c2cc(N3CCOCC3)c(NC(=O)c3ccc(F)cc3)cc21 | -9 | -2.4 | -0.7% | -0.5 | 5 | 3
Cc1nc(-c2cccnc2)sc1C(=O)Nc1ccc(Cl)cc1 | -22 | -1.0 | 1.9% | -0.3 | 3 | -5
CCOC(=O)C1CCCN(CC(=O)/C=C2/N(C)c3ccccc3C2(C)C)C1 (configuration not stated) | -45 | -3.6 | 1.4% | -0.8 | -14 | -4
CCOC(=O)c1sc(NC(=O)CSc2nc(C)cc(C(F)(F)F)n2)c(C#N)c1C | -7 | 3.6 | -3.8%[38.3 µM] | -0.3 | 3 | 7
CN(Cc1ccccc1)CC1C2CCC(C2)C1O (configuration not stated) | -8 | -3.9 | -2.9% | 1.9 | 8 | -9
COc1cccc(CNC(=O)c2ccc3c(c2)sc2nc(-c4ccccc4)cn23)c1OC | · | · | -0.5% | 0.2 | -10 | ·
CC(=O)c1ccc(N2CCN(C(=O)c3ccc(NC4=NC5CS(=O)(=O)CC5S4)cc3)CC2)cc1 (configuration not stated) | -2 | -5.9 | 1.0% | -0.5 | -6 | 6

Copied from the list.
For D2 PAM, O=C(C[n+]1cccc(CNC(=O)c2ccc(OC(F)F)cc2)c1)Nc1ccccc1Cl has the entry -28
For TRPML1 inh, CCOC(=O)C1=C[C@]2(CC)CCCN3CCc4c(n1c1ccccc41)[C@@H]32 has the entry 0
For PINK1 expr mod, COc1cccc(CNC(=O)c2ccc3c(c2)sc2nc(-c4ccccc4)cn23)c1OC has the entry -0.5%
For PINK1 expr mod, CN(Cc1ccccc1)CC1C2CCC(C2)C1O (configuration not stated) has the entry -2.9%
For TRPML1 inh, Cc1nc(-c2cccnc2)sc1C(=O)Nc1ccc(Cl)cc1 has the entry 3
For TRPML1 inh, O=C(OCC(=O)c1c[nH]c2ccccc12)C1=COCCO1 has the entry 16

Next entries follow.
Compound | D2 PAM | D2 ag | PINK1 expr mod | TRPML1 agonist | TRPML1 inh | Six1-Eya2 inh
COc1ccc(Cc2nc3ccc(C(=O)N4CCC(C(N)=O)CC4)cc3o2)cc1 | -6 | -1.7 | -1.2% | -0.2 | 11 | 1
COc1ccc(-c2csc(C(NC(C)=O)c3cccc(F)c3)n2)cn1 (configuration not stated) | -1 | 5.8 | 0.2% | -0.5 | · | -2
CC(=O)Nc1ccc(Nc2nc3ccc(C)cc3n3nnnc23)cc1 | · | · | 12% | -0.1 | 7 | ·
CCCCCCn1c(SCCN2CCOCC2)nc2c1c(=O)[nH]c(=O)n2C | -14 | -2.3 | 0.3% | -0.3 | -3 | -1
COC(=O)N/N=C/c1ccc(OC(=O)/C=C/c2ccco2)cc1 | -2 | -2.4 | 4.9% | -0.8 | -9 | ?
C(=N\Nc1nncc2ccccc12)/c1ccccc1 | -9 | -5.2 | 0.8% | -0.6 | -5 | 2
CCCc1cc(=O)oc2cc(C)cc(OC(C)C(=O)NCCCn3ccnc3)c12 (configuration not stated) | -9 | -4.7 | 2.5% | -1.1 | -19 | 2
COc1ccccc1C(=O)N/C(=C\c1cn(S(=O)(=O)N(C)C)c2ccccc12)C(=O)N1CCN(C)CC1 | -10 | -3.7 | 0.9% | -0.5 | 70 | -3
CCOC(=O)N1CCN(C(=S)NC(=O)C23CC4CC(CC(C4)C2)C3)CC1 | 2 | 4.3 | -0.9% | 0.9 | 16 | -17
O=C(CCCC(=O)OCC(=O)c1ccc(Cl)cc1Cl)Nc1cc(C(F)(F)F)ccc1Cl | -40 | -11 | 1.6% | 1.7 | -8 | 20
CC1C2CCC(C2)C1OC(=O)c1ccccc1C(=O)O (configuration not stated) | -7 | -4.6 | 0.0% | 0.2 | 7 | -1
COc1ccccc1NC(=O)Cn1c(=O)n(-c2cccc(Cl)c2)c(=O)c2sc3ccccc3c21 | · | · | 0.1% | -0.4 | -3 | ·
